HNF4A DNA FP – change in binding of human HNF4 alpha to DNA | activity change, % at 10 µM | HNF4a-FITC DNA binding, fluorescence polarization, 1 h | AID 1224865 | 0.3% of 360,000 active | P41235; in the data active means activity change above about 30%, passing the limit was not always enough;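 further: controls were the assay level and a saturating level of protein; the project sought stronger binding though the title names inhibitors; some compounds called inactive have numbers as strong as hits; positive values seem to mean higher polarization but the record does not say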
Target sequence (P41235 whole entry, looked up): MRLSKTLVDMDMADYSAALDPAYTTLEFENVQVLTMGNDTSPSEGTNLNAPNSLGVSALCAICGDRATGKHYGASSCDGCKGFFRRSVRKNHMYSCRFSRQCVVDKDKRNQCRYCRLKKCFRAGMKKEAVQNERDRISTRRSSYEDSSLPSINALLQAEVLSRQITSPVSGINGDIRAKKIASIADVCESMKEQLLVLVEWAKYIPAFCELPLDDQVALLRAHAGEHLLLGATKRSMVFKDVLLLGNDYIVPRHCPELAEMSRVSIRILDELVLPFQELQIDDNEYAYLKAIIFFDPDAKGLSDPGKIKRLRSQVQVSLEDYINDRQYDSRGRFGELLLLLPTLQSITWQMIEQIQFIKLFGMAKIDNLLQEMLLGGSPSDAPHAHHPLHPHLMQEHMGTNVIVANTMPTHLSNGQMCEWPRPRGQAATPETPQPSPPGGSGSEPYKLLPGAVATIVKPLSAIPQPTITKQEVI
Vif TR-FRET – inhibitors of Vif binding to APOBEC3G peptide, primary screen, biochemical, TR-FRET, GST-Vif 1-94, biotin-A3G peptide, dose response retest (AID 1117319); inhibition, %; hits with a dose series show IC50 in µM; 0.57% of 260,000 active; TR-FRET GST-Vif / biotin-A3G peptide binding; higher % means a stronger effect; test concentration not given here; strong numbers were not always called active;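 active means above the screen mean plus three standard deviations and confirmed in dose response; inconclusive means results disagree or hit not tested in dose response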;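 further: Vif residues 1-94 fused to GST binding biotinylated APOBEC3G peptide 110-148; 0% = full assay without inhibitor and 100% = GST in place of GST-Vif; retest series ran down from 100 µM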
LANA-H2A inh – blocks KSHV LANA binding to histone H2A/H2B; 0.6% of 320,000 active; cell-free LANA-H2A/H2B peptide, fluorescence polarization; inhibition, % (test concentration not listed); in the data active means inhibition mostly above about 10%, no sharp cut-off; inactive means mostly below about 6.7%;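 further: stock transfer was 7.5 nL into about 10 µL; 0% = median of vehicle wells and 100% = median of positive control wells; one replicate is shown; the record names a cut of 25% in any replicate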
A1 inh – inhibitors of the anti-apoptotic protein A1, read as caspase activation; MEF A1-2A-BIM cells, Caspase-Glo 3/7 luminescence, 3 h; percent of clofoctol response, vehicle zero; caspase activation, % (no concentration beside the values); 0.066% of 330,000 active; AID 2462;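 active means over half of replicate activation scores above 10%, or exactly half above 10 with the replicate mean above 10; inconclusive means replicate mean below 10 yet half the replicates above 10; inactive means over half of replicates below 10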;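 further: wells of about 30 µL received 50 nL stock; many hits fall short of the cut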
B2AR ag – activates human beta-2 adrenergic receptor causing internalization; P07550; Am2.2-beta2AR cells, FAP receptor internalization, flow cytometry; reference of the scale not given here; response, % (no concentration beside the values); 0.43% of 340,000 active;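 active means response above a set limit, near 3 SD of response in nonfluorescent compounds, cut at about 42% in these data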;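 further: stock transfer was 100 nL into about 11 µL; a reference agonist was the positive control; negative values mostly stem from fluorescent compounds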
Target sequence (P07550 whole entry, looked up): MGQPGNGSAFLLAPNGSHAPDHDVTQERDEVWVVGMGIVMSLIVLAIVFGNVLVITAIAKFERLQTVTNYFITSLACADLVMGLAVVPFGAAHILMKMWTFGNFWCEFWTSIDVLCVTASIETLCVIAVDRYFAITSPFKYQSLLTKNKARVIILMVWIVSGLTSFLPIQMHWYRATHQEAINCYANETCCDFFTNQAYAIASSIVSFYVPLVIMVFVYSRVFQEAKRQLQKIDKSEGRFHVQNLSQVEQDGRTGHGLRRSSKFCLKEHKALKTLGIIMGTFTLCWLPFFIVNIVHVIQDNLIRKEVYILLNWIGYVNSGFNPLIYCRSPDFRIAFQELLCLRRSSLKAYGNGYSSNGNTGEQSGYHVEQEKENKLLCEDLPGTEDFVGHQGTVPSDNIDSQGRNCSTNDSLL
UCH37 inh – blocks the human deubiquitinase UCH37; purified proteasome/UCH37, Ub-AMC cleavage fluorescence; AID 588478; Q9Y5K5; 0.33% of 330,000 active; inhibition, % (test concentration not listed);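 active means mean of two replicates above 20%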;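 further: 0% = compound-free wells with enzyme and 100% = wells lacking proteasome; stock transfer was 100 nL into about 20 µL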
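assay system = human UCH37 enzyme supplied as purified proteasome complex | amount = proteasome at 0.15 nM in the dispensed enzyme solution | schedule = 30 min compound-proteasome preincubation then 25 min substrate reaction, room temperature | measured by = fluorescence, ex 355 nm, em 460 nm | benchmarks = no-proteasome wells (full inhibition) and compound-free wells (no inhibition)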
E coli growth – blocks Escherichia coli growth. OD600, 23 h; hits give low values. OD600 absorbance (concentration not given with the values). 0.21% of 330,000 active;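 active means OD600 absorbance below the run mean of sample wells minus 3.6 SD, in any replicate, cut at about 0.56 in these data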;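 further: stock transfer was 300 nL into about 60 µL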
Numbers without * were called inactive; i = inactive; ? = inconclusive; . = not tested or not shown; & = joins results of further samples.

SMILES | HNF4A DNA FP | Vif TR-FRET | LANA-H2A inh | A1 inh | B2AR ag | UCH37 inh | E coli growth
O=C(CSc1nnc(-c2ccco2)o1)N1CCN(c2ccccc2)CC1 | 0.8 | 0% | 5.3 | 0.7 | -24 | 1.0 | 0.7
CCOc1ccc(NC(=S)NCCCn2ccnc2)cc1 | -4.4 | 17% | -7.6 | -0.2 | -5 | -0.7 | 0.66
Cc1ccc(S(=O)(=O)N(c2nc(N(C)C)nc(N(C)C)n2)n2cnnc2)cc1 | -0.9 | 8% | -5.7 | -0.4 | -1 | 1.0 | 0.7
COC(=O)c1c(-c2ccc(C)cc2)csc1NC(=O)c1c(-c2ccccc2)noc1C | . | -1% | -5.3 | -0.7 | . | -7.0 | 0.71
COc1ccccc1-c1coc2c(CN3CCOCC3)c(O)ccc2c1=O | 0.6 | . | 3.7 | -0.2 | -14 | i | 0.69
Cc1cc(/C=C(/C#N)c2nc3ccccc3[nH]2)c(C)n1-c1cc(C(=O)O)cc(C(=O)O)c1 | -33 | ? | . | . | -9 | 12 | 0.67
CCC(CC)C(=O)OCC(=O)Nc1cc(OC)c([N+](=O)[O-])cc1C | 1.7 | . | -1.2 | 0.7 | 3 | 0.3 | 0.71
O=[N+]([O-])c1ccc(CNc2ccc(F)cc2)s1 | 0.1 | >100µM* | 6.7 | -0.6 | 23 | 5.8 | 0.61
C=CCNc1nc2ccccc2nc1NS(=O)(=O)c1ccc(OC)cc1 | -1.3 | . | 0.4 | -0.9 | -10 | -117 | 0.67
CCc1cccc(OCCCCN(CC)CC)c1 | 2.7 | -2% | 1.0 | -1.2 | 0 | 4.8 | 0.68
O=C(CSc1ccc2ccccc2c1)Nc1ccncc1 | -4.2 | 2% | 6.5 | -1.9 | 4 | -1.1 | 0.71
CC(C)N(C=O)C1(C(=O)NC2CCCCC2)CCCCC1 | -0.2 | 7% | 3.8 | -0.1 | 6 | -1.1 | 0.66
NC(=O)NOCc1ncc(C(F)(F)F)cc1Cl | 2.3 | -3% | -15 | 0.0 | -7 | 6.0 | 0.76
O=C(Cc1nnc(NC(=O)Nc2ccccc2)s1)NCc1ccccc1 | -20 | 11% | 1.5 | 0.1 | -8 | . | .
CC(C)CNc1oc(-c2ccco2)nc1C#N | -2.4 | -1% | -0.5 | 0.5 | -9 | -49 | 0.72
CCc1noc(C)c1C(=O)N(C)CC(=O)Nc1cccc(OC)c1 | -3.8 | 24% | -5.8 | 1.7 | -34 | -1.3 | 0.7
CCN1C(=O)N(CC)C(O)(c2ccccc2)C1(O)c1ccccc1 (stereo unspecified) | 0.6 | 15% | -1.6 | 0.3 | -7 | 2.5 | 0.77
CC(/C=N/NC(=O)c1ccncc1)=C\c1ccco1 | -1.2 | ? | 5.0 | 0.5 | 5 | . | .
Cc1cc(C)nc(N/N=C2/CCCC/C2=C\c2ccccc2)n1 | 1.8 | . | 0.7 | 0.4 | -6 | . | .
CC(=O)c1ccc(N2CCN(S(=O)(=O)c3ccc4ccccc4c3)CC2)cc1 | -0.5 | 1% | . | -0.5 | 11 | 2.0 | 0.68
CSc1nc(NCC(C)C)nc(N2CCOCC2)n1 | 0.0 | 6% | 3.8 | -0.9 | -1 | 4.0 | 0.7
CCCCCCCC(=O)Oc1ccc(C(=O)Nc2cc(C)on2)cc1 | 1.6 | 5% | -0.1 | -3.8 | -4 | 2.0 | 0.7
CN(C)CCCOC(=O)c1ccccc1Cl | -0.8 | -4% | 5.9 | -0.7 | -2 | 0.5 | 0.71
O=C(NCCCN1CCCC1=O)C1CCN(S(=O)(=O)c2c(Cl)cccc2Cl)CC1 | -0.6 | -2% | 2.9 | 0.2 | -4 | 2.0 | 0.67
O=C(c1ccc2oc(Cc3ccc(Cl)cc3)nc2c1)N1CCCCC1CCO (stereo unspecified) | 1.2 | -2% | -3.2 | 0.1 | -4 | 4.0 | 0.69

Just E coli growth and UCH37 inh, for 3 of the compounds above:
canonical_smiles | E coli growth | UCH37 inh
CCOc1ccc(NC(=S)NCCCn2ccnc2)cc1 | 0.66 | -0.7
Cc1ccc(S(=O)(=O)N(c2nc(N(C)C)nc(N(C)C)n2)n2cnnc2)cc1 | 0.7 | 1.0
COC(=O)c1c(-c2ccc(C)cc2)csc1NC(=O)c1c(-c2ccccc2)noc1C | 0.71 | -7.0

Other entries follow.
SMILES | HNF4A DNA FP | Vif TR-FRET | LANA-H2A inh | A1 inh | B2AR ag | UCH37 inh | E coli growth
Cc1ccc(C(=O)Nc2ccc(N3CCOCC3)nc2)cc1 | 1.2 | 12% | 2.9 | -0.5 | -6 | 0.6 | 0.69
Cc1ccc(C(=O)CCC(=O)N2CCN(c3ccc(F)cc3)CC2)cc1 | 3.2 | . | -0.2 | -2.0 | -3 | 3.6 | 0.74
CCN1CCN(CC(O)COC(C)C)CC1 (stereo unspecified) | 1.3 | 7% | -9.7 | 0.3 | 2 | -0.2 | 0.71
COc1cccc(-n2cnc3sc4c(c3c2=O)CCC4)c1 | 0.3 | . | -4.4 | 0.7 | -1 | -0.8 | 0.7
Cc1ncc(CN2CCCC(C(=O)Nc3ccc(-c4ccco4)cc3)C2)n1C (stereo unspecified) | 2.1 | -4% | -5.0 | -0.7 | 4 | -0.7 | 0.71
C#CC1(NC(=O)NCCCC)CCCCC1 | 4.7 | 2% | -6.5 | 0.3 | 1 | 1.4 | 0.65
O=C(CN1CCN(c2cccc(Cl)c2)CC1)NCc1ccccc1 | -1.1 | . | 3.0 | -0.3 | 5 | 3.3 | 0.65
CCOC(=O)CSc1nnc(NC(=O)c2cc([N+](=O)[O-])cc([N+](=O)[O-])c2)s1 | -2.2 | . | 1.3 | -0.6 | 4 | 7.6 | 0.61
Cc1ccc(C(=O)N/C(=C\c2ccc3c(c2)OCO3)C(=O)N2CCOCC2)cc1 | 1.5 | -11% | 0.2 | 0.2 | 11 | 2.8 | 0.7
CCOC(=O)C1C(=O)C=C(C)C(C(=O)OCC)C1c1cccc([N+](=O)[O-])c1 (stereo unspecified) | 1.4 | -4% | 27* | 0.8 | 1 | 0.7 | 0.68
C=CCOc1ccc(CN(C)C(=O)CNC(=O)c2ccc(-c3ccccc3)cc2)cc1 | 0.8 | -3% | 1.0 | 1.8 | 5 | 1.1 | 0.65
COc1ccc(C(CNC(=O)CNS(=O)(=O)c2ccc(NC(C)=O)cc2)N2CCOCC2)cc1 (stereo unspecified) | -1.4 | 2% | 2.1 | -0.1 | 7 | 2.9 | 0.69
COc1cccc(OCC(O)CNC(C)c2ccccc2)c1 (stereo unspecified) | 1.3 | 3% | 2.3 | -1.0 | 0 | 2.4 | 0.65
COc1ccccc1CNC(=O)CN1C(=O)COc2ccc(S(=O)(=O)N3CCCCC3)cc21 | -0.2 | -15% | -3.2 | -0.4 | 1 | 0.5 | 0.71
C=CCn1c(SCC(=O)c2ccc(Cl)cc2)nnc1-c1ccc2c(c1)OCO2 | 0.6 | 9% | -1.9 | 0.6 | 2 | -0.4 | 0.69
Oc1ccc(/C=N/Nc2ccccc2)cc1 | -1.2 | 15% | -4.8 | 1.1 | -1 | . | .
O=C(COC(=O)c1cccs1)NCc1ccccc1 | -1.7 | -2% | -3.1 | 0.3 | -5 | -0.8 | 0.75
CC(=O)N1CCc2cc(S(=O)(=O)NCCC(=O)NCCc3ccccc3)ccc21 | -0.6 | 28% | 2.3 | -0.2 | -3 | 1.5 | 0.73
COc1ccc(S(=O)(=O)N(C)C)cc1NCC(=O)Nc1ccc(Br)c(C)c1 | -3.1 | 5% | -4.9 | 0.4 | 4 | 1.7 | 0.68
O=C1c2cccnc2C(Nc2ccc(S(=O)(=O)N3CCCCC3)cc2)N1Cc1ccccc1 (stereo unspecified) | -0.2 | 1% | 0.4 | 0.8 | -5 | 1.2 | 0.72
Cc1ccc(NC(=O)CCc2c(C)nn(-c3ccc(N4CCOCC4)nn3)c2C)cc1 | 1.8 | 2% | -15 | -0.6 | 2 | -0.2 | 0.66
CC(C)(C)c1ccc(/C=C/C(=O)NCCCn2ccnc2)cc1 | 1.1 | -5% | 1.0 | -0.6 | 8 | 0.0 | 0.66
c1ccc(NC2=NCCN2CC2CCCCCC2)cc1 | 3.2 | . | -2.6 | -0.5 | -2 | 0.8 | 0.7
Cn1nc(C(=O)Nc2ccc(-n3cnnn3)cc2)c2ccccc2c1=O | 0.0 | -3% | 0.5 | 0.8 | -9 | 2.9 | 0.71
Cc1cccn2c(=O)c3cc(C(=O)NCCC4=CCCCC4)n(C)c3nc12 | 2.8 | . | -1.4 | -0.5 | -2 | -142 | 0.68

Additional entries:
SMILES | HNF4A DNA FP | Vif TR-FRET | LANA-H2A inh | A1 inh | B2AR ag | UCH37 inh | E coli growth
Fc1ccccc1CSc1ncn[nH]1 | -1.9 | -6% | -2.2 | -0.3 | 4 | 0.7 | 0.69
O=C(O)CCCNC(=O)CCCNC(=O)C(c1ccccc1)c1ccccc1 | 0.1 | 26% | 3.6 | 0.9 | 2 | 1.3 | 0.72
Cn1c(Cn2nnc3ccccc32)nnc1SCC(=O)NCc1ccc2c(c1)OCO2 | 2.2 | 0%&2% | . | . | -5 | 0.9 | 0.71
CCOC(=O)Cn1nc(C)n(-c2ccc(C)cc2)c1=O | 0.0 | 2% | -4.3 | -0.6 | 1 | -1.2 | 0.72
CCN(Cc1ccccc1)C(=O)CCS(=O)(=O)c1ccc2c(c1)oc(=O)n2C | -1.0 | . | -9.4 | 0.0 | -12 | 3.7 | 0.72
CCc1nc2ccccc2n1CC(=O)OCC(=O)N(CC(C)C)c1c(N)n(Cc2ccccc2)c(=O)[nH]c1=O | -3.2 | 0% | . | -0.6 | -2 | -1.8 | 0.68
CCOc1ccccc1OCCCC(=O)OCC(=O)Nc1cccc(Cl)c1 | 3.0 | 19% | 4.6 | 0.7 | 0 | 4.4 | 0.68
CC(=O)c1cccc(NC(=O)c2cnn3ccccc23)c1 | 1.5 | 78µM* | -5.3 | -6.1 | -12 | 0.0 | 0.73
COC(=O)c1ccccc1N=Nc1c(C)[nH][nH]c1=O | -0.6 | 6% | 3.7 | -0.7 | 1 | 8.0 | 0.71
CCOc1ccc(S(=O)(=O)NCCC(=O)N2CCN(c3ccc(OC)cc3)CC2)cc1 | 1.1 | . | 1.3 | -0.3 | -3 | 1.4 | 0.66
O=C(N[C@@H]1C/C=C\C[C@H](CC(=O)N(CCO)Cc2ccccc2)C(=O)N[C@@H](Cc2c[nH]c3ccccc23)COC1=O)OCC1c2ccccc2-c2ccccc21 | 2.1 | -1% | -333 | 0.9 | -10 | 0.6 | 0.7
Cc1ccc(Nc2ncnc3sc(C)c(C)c23)cc1 | 0.0 | -3% | 2.8 | 0.0 | 7 | 0.7 | 0.67
COCCNC(=O)/C(C#N)=C/c1c(N2CCN(c3ccc(OC)cc3)CC2)nc2c(C)cccn2c1=O | -0.1 | . | -4.7 | 1.3 | 6 | -134 | 0.7
Cn1c(CCNC(=O)C2CCCCC2)nc2cc([N+](=O)[O-])ccc21 | 2.1 | 4% | 0.5 | -0.1 | -15 | 7.5 | 0.72
CN(Cc1ccccc1)S(=O)(=O)c1nnc(NC(=O)c2ccc(F)cc2)s1 | -5.3 | . | 2.4 | 2.2 | 22 | -0.4 | 0.7
O=C(NCCCN1CCCC1=O)c1ccc(S(=O)(=O)Nc2cccc(C(F)(F)F)c2)cc1 | -2.6 | 6% | 2.3 | 0.0 | -2 | -0.8 | 0.6
COc1ccc(/C=N/NC(=O)c2cccc(O)c2)cc1Cn1nc(C)c([N+](=O)[O-])c1C | 1.1 | -12% | 2.4 | 0.8 | 1 | . | .
Cc1ccc(CCNC(=O)CCc2nc3ccccc3[nH]2)cc1 | 4.0 | . | -1.9 | 0.1 | -13 | 0.9 | 0.71
